Assay outcomes as filed in PubChem BioAssay.
Rango release inh: inhibitors of RanGTP-induced Rango-importin beta complex dissociation. 0.071% of 340,000 active. Biochemical FRET Rango-importin beta, RanGTP-induced dissociation. Potency, µM (doses to about 46.1 µM), without a hit: top-dose activity change, negative = inhibition; active means falling FRET ratio curve, often poorly fitted, with flat reads before Ran was added; inconclusive means other falling curves, or compound fluorescence or quenching; inactive means flat or rising ratio curve;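 further: potency means the concentration at half of the fitted maximal effect; % of control where 0% means no effect; nearly all actives have a fitted effect of over 45% in size; -100% = wells without RanGTP and RCC1; the record marks most hits as doubtful in a second field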
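Rango FRET biosensor (snurportin-1 IBB flanked by N-terminal EYFP and C-terminal CFP10) at 0.1 uM, with 0.25 uM importin beta in PBS, 1mM DTT, 0.02% Tween-20, 0.1% BSA. 0.6 uM Ran, 2mM GTP and 0.2 uM RCC1 were then added for 45 min at room temperature. Inhibition read as loss of FRET rise.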
Rango complex inh: inhibitors of Rango-importin beta complex formation; Q14974; Rango CFP/YFP FRET sensor + importin beta, 45 min; Potency, µM (titrated, usually from 92.2 µM), inactives show at the top dose inhibition of complex formation; 0.031% of 340,000 active; active = rising FRET ratio curve, often small or poorly fitted; inconclusive = mostly compound fluorescence or quenching in the first reads; inactive = flat curves in all reads;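 further: potency means the concentration at half of the fitted maximal effect; 0% = DMSO wells and 100% = buffer wells lacking importin beta; nearly all actives have a fitted effect of over 15% in size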
Target sequence (Q14974 whole entry, looked up): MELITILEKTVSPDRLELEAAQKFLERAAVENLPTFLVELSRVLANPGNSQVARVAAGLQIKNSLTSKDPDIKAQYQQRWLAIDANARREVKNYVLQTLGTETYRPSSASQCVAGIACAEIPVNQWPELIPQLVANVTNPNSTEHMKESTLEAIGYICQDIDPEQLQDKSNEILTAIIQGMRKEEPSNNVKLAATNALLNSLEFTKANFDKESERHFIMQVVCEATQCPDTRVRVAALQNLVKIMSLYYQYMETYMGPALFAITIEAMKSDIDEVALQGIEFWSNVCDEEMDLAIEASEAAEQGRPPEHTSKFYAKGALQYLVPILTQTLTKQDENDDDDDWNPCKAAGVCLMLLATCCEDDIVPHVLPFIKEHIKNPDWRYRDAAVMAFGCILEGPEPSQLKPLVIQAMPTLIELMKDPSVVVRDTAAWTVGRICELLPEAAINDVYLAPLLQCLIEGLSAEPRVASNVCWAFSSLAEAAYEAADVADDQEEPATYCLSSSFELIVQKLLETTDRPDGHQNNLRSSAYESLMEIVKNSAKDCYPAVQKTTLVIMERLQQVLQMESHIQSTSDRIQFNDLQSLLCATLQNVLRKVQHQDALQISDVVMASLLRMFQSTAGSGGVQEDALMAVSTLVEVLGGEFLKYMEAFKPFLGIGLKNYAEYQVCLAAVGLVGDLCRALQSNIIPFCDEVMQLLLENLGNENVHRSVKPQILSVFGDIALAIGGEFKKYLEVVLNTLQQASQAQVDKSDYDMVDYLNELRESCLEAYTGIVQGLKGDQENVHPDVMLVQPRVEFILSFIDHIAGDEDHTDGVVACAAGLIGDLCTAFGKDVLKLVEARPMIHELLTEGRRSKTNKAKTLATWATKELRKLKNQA
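FRET biosensor (snurportin 1 IBB flanked by EYFP and cerulean), 50 nM, with compound 5 min, then 0.125 microM importin beta in PBS, 1 mM DTT, 0.02% Tween-20, 0.1% BSA. CFP/YFP ratio read after 45 min at room temperature; pre-read flags interference.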
miR-21 reporter: miR-21 reporter, rising signal. Potency, µM (doses to about 38.3 µM), for the others: at the highest dose reporter change, positive = more light. 340,000 tested, under 10 active. AID 2288. HeLa miR-21 FLuc reporter, luciferase, 48 h; active = well fitted rising curve with a large enough effect; inconclusive = small, poorly fitted or top-dose-only effect; inactive = no such curve, though single readings can be large or run the other way;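 further: % of control where 0% means no effect; miR-21 action dims this reporter so a rising signal means less miR-21 action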
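Using DMEM plus 10% FBS, HeLa miR-21-FLuc cells are incubated with test compounds (final up to about 40uM) for 48 hours; firefly luciferase signal is then imaged following reagent-mediated lysis.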
GLA inh pH 4.5: blocks human alpha-galactosidase A at pH 4.5 | P06280 | activity change, negative = inhibition, % at 105 µM | AID 1467 | purified enzyme, 4-MU-alpha-Gal fluorescence, pH 4.5 | 230,000 tested, under 10 active; inconclusive = small, poorly fitted or top-dose-only inhibition, or a rising curve; inactive = flat fitted curve, though single readings scatter; no compound was filed as active;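 further: 0% = full activity with enzyme and -100% = basal without enzyme; dose as in the result columns while the protocol names 77 µM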
* marks the source's active call; other numbers are inactive results; ? = inconclusive; · = not tested or not shown; & = joins results of further samples. An excerpt, so the mix of outcomes need not match the whole.

mol	Rango release inh	Rango complex inh	miR-21 reporter	GLA inh pH 4.5
CCOC(=O)C(NC(=O)CC(C)C)(Nc1cc(C)on1)C(F)(F)F (stereo not given)	1%	0.6%	1%	2
CCc1nnc(NS(=O)(=O)c2ccc(NC(=O)/C=C/c3ccc(OC)cc3OC)cc2)s1	-3%	3.0%	-2%	-8
COc1cc(OC)cc(C(=O)Nc2cccc(-c3ccc(N4CCOCC4)nn3)c2)c1	7%	3.7%	·	·
CC(C)c1nc2sc3c(c2c(=O)n1N)CC(C)(C)OC3	1%	0.5%	-5%	9
CCCCN(C(=O)c1ccc(N(C)S(=O)(=O)c2ccc(C)cc2)cc1)c1c(N)n(CCCC)c(=O)[nH]c1=O	-1%	-3.5%	·	·
COC(=O)c1sc(NC(=O)c2csc3c2CCCC3)nc1C	2%	-1.6%	-47%	5
O=C(c1ccc(F)cc1F)N1CCCN(c2nc(-c3ccccc3)ns2)CC1	7%	-5.2%	-11%	-7
O=C(Nc1cccc(S(=O)(=O)NC2=NCCC2)c1)c1ccc(=O)[nH]c1	10%	0.5%	·	·
COc1ccc(C(=O)N[C@H](C(=O)OCc2cc(=O)oc3cc(C)ccc23)C(C)C)cc1	-7%	-0.5%	-1%	-10
O=C(O)CN1CCN(Cc2ccccc2)C1=O	-4%	-3.3%	-6%	·
COc1cc2ccc(=O)oc2c(O)c1O	?	?	·	-4&18
COc1ccccc1C(=O)NC(=O)CSc1ccc(C)c(C)c1	0%	2.4%	·	·
O=C1Nc2ccccc2O/C1=C\c1c(F)cccc1Cl	22%	?	3%	·
O=C1CN(C(=O)COC(=O)C2CCN(S(=O)(=O)c3ccccc3C(F)(F)F)CC2)c2ccccc2N1	-9%	1.2%	-4%	1
COc1ccc(C(=O)N2CCN(S(=O)(=O)c3ccc4c(c3)OCCO4)CC2)cc1OC	-11%	1.0%	·	·
O=C(NN1C(=O)c2ccccc2NC1c1ccccn1)c1ccc(Br)cc1 (stereo not given)	0%	0.4%	-12%	-1
Cc1cccc(-n2c(Cc3ccccc3)nnc2SCc2ccc([N+](=O)[O-])cc2)c1	17%	-0.4%	12%	-9
CCOc1ccc(NC(=O)COC(=O)c2ccc3c(c2)OCO3)cc1	2%	3.6%	·	·
COc1cc(/C=C/C(=O)OCC(=O)NNC(=O)c2cc(Cl)ccc2OC)ccc1O	-18%	?	·	·
CC1CCc2c(sc3ncnc(SCC(=O)N(C)C4CCS(=O)(=O)C4)c23)C1 (stereo not given)	-7%	4.6%	·	·
COc1cc(OC)cc(N2CC(C)(C)C2=O)c1	39%	1.4%	-4%	3
COC(=O)c1cc(S(=O)(=O)N2CCN(c3cccc(OC)c3)CC2)cn1C	-15%	-1.0%	0%	·
Nc1cc(=O)[nH]c(=S)n1-c1ccccc1	11%	-2.9%	-4%	5
COc1ccc(-n2c(=O)c3ccccc3n(CC(=O)Nc3cc(C)on3)c2=O)cc1OC	4%	2.1%	-4%	11
COc1ccc(C(=O)N2CCC(N3CCN(c4ccccc4)CC3)CC2)cc1OC	14%	-1.5%	-8%	5
Cc1ccccc1OCc1nnc(SCC(=O)O)n1Cc1ccccc1	-13%	-6.3%	-1%	-19
Cn1c(=O)c2c(SCC(N)=O)nc(CC(C)(C)C)nc2n(C)c1=O	-8%	-0.1%	-9%	1
Cc1cnc(C(=O)OCC(=O)N2CCc3ccccc3C2)cn1	-1%	-0.1%	1%	1
COCCSc1nnc(NC(=O)Cc2cccs2)s1	-3%	?	24%	2
Cc1ccc(C(=O)NC2CCN(Cc3ccccc3)CC2)cc1S(=O)(=O)N1CCOCC1	?	6.4%	·	·
COc1ccc([N+](=O)[O-])cc1NS(=O)(=O)c1cc(C(=O)NCc2cccnc2)ccc1Cl	12%	0.5%	·	·
O=C(CCc1ccccc1Cl)Nc1ccc(S(=O)(=O)Nc2nccs2)cc1	17%	1.0%	·	·
Cc1c(Cl)cccc1NC(=S)N(C)CCC#N	1%	?	1%	-8
CC(=O)Nc1ccc2nc(NC(=O)COc3ccccc3C)sc2c1	3%	4.0%	-12%	7
CCC(C(=O)O)n1c(C(F)(F)F)nc2ccccc21 (stereo not given)	5%	-2.2%	-5%	-11
CCOc1ccc(S(=O)(=O)N2CCC(C(=O)NCc3ccccn3)CC2)cc1	-2%	5.5%	-2%	·
CCOC(=O)CN1NC2(CCC(C)CC2)NC1=S (stereo not given)	-5%	-0.6%	-3%	0
CCCC(=O)N1CCc2cc(-c3nc(N)sc3C)ccc21	-3%	-2.1%	-52%	-15
Cc1cccc(-n2c(O)c(C=NCc3ccccn3)c3ccccc3c2=O)c1	21%	-1.9%	7%	-9
COCCn1c(CCC(=O)O)ccc1-c1cccs1	?	?	-2%	-1
Cc1cccc(-c2ncc(CN3CCN(C4CCCC4)C(CCO)C3)cn2)c1 (stereo not given)	7%	0.4%	-1%	6
CC(C)c1ccc(Nc2nnc(SCC(=O)Nc3ncc(S(=O)(=O)c4ccc([N+](=O)[O-])cc4)s3)s2)cc1	-13%	1.8%	-24%	-21
Cc1ccc(C)c(NC(=O)c2ccc3c(c2)N(Cc2ccc(F)cc2)C(=O)CS3=O)c1 (stereo not given)	0%	-1.3%	-5%	1
COc1ccc(/C=C(/NC(=O)c2ccc(OC)c(OC)c2)C(=O)NCCCn2ccnc2)cc1	1%	0.4%	-2%	·
Cc1ccc(Cl)cc1NC(=O)Nc1cccs1	-12%	0.9%	20%	4
COC(=O)Nc1ccc(S(=O)(=O)N2CCN(CCN3C(=O)C4C5C=CC(C5)C4C3=O)CC2)cc1 (stereo not given)	20%	3.8%	-2%	4
COc1ccc(C2=NOC(C)(c3nnc(-c4ccc(F)cc4)o3)C2)cc1 (stereo not given)	21%	-2.2%	-2%	-21
NC(=O)C1(N2CCCCC2)CCN(C2CC(=O)NC2=O)CC1 (stereo not given)	3%	-0.7%	1%	3
CCc1ccc(NC(=O)c2ccnc(C(C)(C)C)c2)cc1	2%	-1.6%	-10%	0
CCOC(=O)C1=C(C)OC(N)=C(C#N)C1c1cc(OC)c2c(c1)OCO2 (stereo not given)	-8%	0.6%	-4%	-11

Record cards (already shown). Order of screens: Rango release inh | Rango complex inh | miR-21 reporter | GLA inh pH 4.5
`CCCC(=O)N1CCc2cc(-c3nc(N)sc3C)ccc21` is listed with -3% | -2.1% | -52% | -15
`CCC(C(=O)O)n1c(C(F)(F)F)nc2ccccc21` (stereo not given) is listed with 5% | -2.2% | -5% | -11

Next section
mol	Rango release inh	Rango complex inh	miR-21 reporter	GLA inh pH 4.5
CN(CC(=O)Nc1ccccc1Br)C(=O)CNC(=O)Cc1cccc2ccccc12	1%	-0.6%	-7%	·
COc1ccc(/C=N/c2nc3ccccc3n2C)cc1OC	12%	3.0%	1%	-3
N/C(=N\c1nc2c(c(=O)[nH]1)CCCC2)Nc1ccccc1Sc1ccccc1	15%	-0.5%	0%	-5
O=C1CCC(C(=O)Nc2cccc(S(=O)(=O)Nc3ccccc3F)c2)=NN1	8%	-0.6%	·	·
CCOc1ccc(OCC(=O)Nc2c3c(nn2C(C)(C)C)CS(=O)(=O)C3)cc1	1%	0.5%	-1%	·
Cc1ccc(NC(=S)Nc2nc(CC(=O)Nc3ccccc3)cs2)cc1	-2%	1.6%	-28%	5
N#Cc1nc(-c2ccccc2Cl)oc1N1CCOCC1	-7%	3.6%	-25%	-8
COc1ccc(/C=C(\NC(=O)c2cccs2)C(=O)Nc2ccccc2C)cc1OC	1%	-0.4%	-7%	-14
CC1CC2=C(NC(=S)NC2c2ccccc2F)/C(=C/c2ccccc2F)C1 (stereo not given)	-6%	0.8%	-1%	-8
COC(=O)C1CCCN1C(C(=O)NC1CCCCC1)c1ccc(Cl)cc1 (stereo not given)	30%	4.2%	-9%	2
Cc1ccc(C)c2c(SC(C)C(=O)NCc3ccco3)nc(-c3ccccc3)nc12 (stereo not given)	6%	4.0%	-7%	1
O=C(O)c1sccc1Oc1ccc(NS(=O)(=O)c2cccc(F)c2)cc1	-4%	-0.2%	2%	·
O=C(N/N=C/c1ccco1)c1cnccn1	3%	-3.7%	-6%	2
O=C(NC1CCCCC1)c1ccc(N2CCOCC2)c([N+](=O)[O-])c1	?	?	-21%	·
CSc1nc(O)c(C(c2ccc(O)cc2)c2c(O)nc(SC)[nH]c2=O)c(=O)[nH]1	27%	-1.6%	2%	·
CN(C)CCNC(=O)c1sc2cccc(F)c2c1Cl	11%	-3.4%	-19%	-1
Cc1ccc(C)c(NC(=O)CCC(=O)N/N=C2/CC(=O)CC(C)(C)C2)c1	0%	0.8%	0%	-15
COC(=O)c1cc(S(=O)(=O)NCCc2ccc(SC)cc2)c[nH]1	-5%	3.5%	14%	·
N/C(=N\c1nc2c(c(=O)[nH]1)CCC2)Nc1ccccc1	3%	-0.6%	-3%	-4
NS(=O)(=O)c1cccnc1Nc1ccc(Cl)c(Cl)c1	-6%	-3.0%	-15%	2
CC1CCN(c2ccc3nnc(CCC(=O)NCCCOC(C)C)n3n2)CC1	-16%	-1.9%	-4%	·
CC(=O)c1cccc(NC(=O)N2CCC(C(=O)c3ccc(F)cc3)CC2)c1	2%	0.3%	29%	·
COc1ccc(C(=O)CCS(=O)(=O)c2ccc(C)cc2)cc1OC	-2%	0.1%	?	·
C[N+]1(CC(=O)OCCCc2ccccc2)CCOCC1	-14%	0.2%	-2%	8
Cc1cc(=O)oc2cc(OCC(=O)N3CCCC(C)C3)ccc12 (stereo not given)	13%	-0.5%	-15%	7
Cc1ccc(N=Cc2c(O)n(-c3nccs3)c(=O)c3ccccc23)cc1	-11%	?	1%	2
O=C(O)c1cccc(NC(=O)c2cccc(S(=O)(=O)N3CCc4ccccc43)c2)c1	8%	7.0%	-14%	·
CCN1CCN(C(=O)CCc2nnc3ccc(N4CCC5(CC4)OCCO5)nn23)CC1	-8%	-0.4%	-5%	·
CCc1ccc(NC(=O)c2ccc(Cn3cc([N+](=O)[O-])cn3)cc2)cc1	12%	1.7%	-41%	5
O=C(COc1ccc(-c2nnco2)cc1)NC1CCS(=O)(=O)C1 (stereo not given)	-8%	5.1%	·	·
CN(C)c1ccc(C=NNc2nc3c([nH]2)c(=O)n(C)c(=O)n3C)cc1	-5%	-0.3%	·	·
COc1ccc(-c2nnnn2-c2ccccc2OC)cc1	-18%	0.6%	19%	1
C/C(=N\NC(=O)c1nnn(-c2nonc2N)c1CN1CCc2ccccc21)c1ccccc1O	-21%	7.0%	-1%	·
Cc1cnc(C(=O)OCC(=O)Nc2ccc(Cl)cc2)cn1	30%	-0.4%	1%	-15
c1cc2ccc3ccc(CN4CCOCC4)c4ccc(c1)c2c34	20%	-1.6%	-27%	4
O=c1oc2ccccc2c(NCCc2ccccc2)c1[N+](=O)[O-]	0%	2.0%	-4%	-2
CCCCNC(=O)Nc1cnn(CC)c1C(N)=O	1%	-0.3%	-4%	-2
Cc1cccc2cc(C#N)c(NCCNS(=O)(=O)c3ccc4c(c3)OCCO4)nc12	?	?	-15%	-8
Cn1c(-c2ccc(C(C)(C)C)cc2)n[nH]c1=S	17%	-2.4%	-37%	7
CC(C)c1ccc(N2CCN(C(=O)c3ccccc3NC(=O)/C=C(\C(=O)O)c3ccccc3)CC2)cc1	·	·	8%	-4
COC(=O)N/N=C\c1cc(Br)ccc1OCc1ccccc1	15%	2.6%	-34%	-17
Cn1c(=O)oc2cc(S(=O)(=O)Nc3cccc(C(=O)O)c3)ccc21	-10%	-6.4%	-1%	3
O=C(O)CCCC(=O)N1CCN(c2nc(-c3ccccc3Cl)c3cc(Br)ccc3n2)CC1	?	0.4%	-5%	·
Cc1cccc(OCC(=O)N/N=C/c2sc(=O)n(Cc3cccc(C(=O)O)c3)c2Cl)c1	-17%	-1.7%	-4%	-1
